# KCNQ2 pot = enhances the rat KCNQ2 potassium channel | CHO-K1 KCNQ2, FluxOR thallium flux fluorescence; hits give high values | B-score at 10 µM | 0.54% of 310,000 active;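 active = fluorescence ratio B-score at least 3 SD of library B-scores, with initial fluorescence B-score within 3 SD, cut at about 5.3 in these data; same plate scores as AID 2156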;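 also: B-score of peak minus minimum over baseline fluorescence ratio after K+ and Tl+ stimulus; positive B-score means potentiation of KCNQ2 with more thallium influx and brighter signal; only the inactives scoring about 0 or higher are listed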
# Target sequence (O88943 whole entry, looked up): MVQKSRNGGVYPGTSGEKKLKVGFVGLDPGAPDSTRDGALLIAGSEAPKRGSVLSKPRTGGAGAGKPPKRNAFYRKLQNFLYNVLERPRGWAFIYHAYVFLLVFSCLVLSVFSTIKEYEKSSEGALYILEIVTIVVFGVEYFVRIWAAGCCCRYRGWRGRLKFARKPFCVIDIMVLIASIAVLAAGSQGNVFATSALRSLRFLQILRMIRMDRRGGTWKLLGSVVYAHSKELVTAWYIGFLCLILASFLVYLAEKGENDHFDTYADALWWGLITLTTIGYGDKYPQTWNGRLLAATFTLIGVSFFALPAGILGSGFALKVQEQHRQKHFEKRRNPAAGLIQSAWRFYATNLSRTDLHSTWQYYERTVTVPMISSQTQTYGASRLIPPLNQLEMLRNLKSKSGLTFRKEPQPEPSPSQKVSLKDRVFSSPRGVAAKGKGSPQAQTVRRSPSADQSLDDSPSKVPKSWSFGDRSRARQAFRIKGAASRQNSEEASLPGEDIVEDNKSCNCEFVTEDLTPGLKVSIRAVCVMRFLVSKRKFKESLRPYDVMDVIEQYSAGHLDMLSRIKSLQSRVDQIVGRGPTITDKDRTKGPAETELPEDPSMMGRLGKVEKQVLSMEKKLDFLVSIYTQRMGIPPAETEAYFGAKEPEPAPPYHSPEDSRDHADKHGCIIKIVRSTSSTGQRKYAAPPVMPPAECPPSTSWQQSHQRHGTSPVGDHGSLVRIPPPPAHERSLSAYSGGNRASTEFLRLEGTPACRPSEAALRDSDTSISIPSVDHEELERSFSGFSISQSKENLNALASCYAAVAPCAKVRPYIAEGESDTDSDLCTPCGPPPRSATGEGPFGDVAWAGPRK
# KCNQ2 pot baseline = further read-out of KCNQ2 pot, marked with its call; B-score; compound at 10 µM; measured here: initial fluorescence intensity artifact check;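 brightness before thallium and not channel activity; 0 = typical well and far values either way flag optical interference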
# * marks the source's active call; other numbers are inactive results. An excerpt; count on the stated rates, not on these rows.
Structure | KCNQ2 pot | KCNQ2 pot baseline
CCn1c(SCC(=O)c2ccc(Br)cc2)nnc1C(C)NC(=O)Cc1ccc(OC)cc1 (configuration not stated) | 0.4 | -1.02
CCOC(=O)c1cnc2ccccc2c1NCCO | 1.59 | 2.63
CC(Sc1ncnc2sc(-c3ccccc3)cc12)C(=O)NCC1CCCO1 (configuration not stated) | 0.85 | 2.1
CCN(CC)Cc1c(C(=O)N/N=C/c2cccs2)nnn1-c1nonc1N | 1.13 | -0.47
O=C(N/C(=C/c1cccnc1)C(=O)N1CCOCC1)c1ccccc1Cl | 0.78 | 0.62
O=C(Nc1ccc(N2CCCC2)cc1)c1ccc2ccccc2c1 | 0.01 | 0.12
Nc1c(C(=O)NCc2ccco2)nnn1CC(=O)Nc1ccccc1 | 1.61 | 0.72
CN(C)c1ccc(C2NC(=O)c3ccccc3N2)cc1 (configuration not stated) | 0.73 | 1.03
CCOC(=O)C1CCCN(C(=O)COc2ccc(N(C)S(=O)(=O)c3ccc(C)cc3)cc2)C1 (configuration not stated) | 1.12 | 0.42
O=C(NC1CCN(C(=S)NCc2ccco2)CC1)c1ccc(F)cc1 | 0.25 | -0.11
CC(=O)c1ccc(NC(=S)N2CCN(c3cccc(Cl)c3)CC2)cc1 | 0.05 | -1.49
CCOC(=O)c1ccc(NC(=O)COC(=O)c2cccc(Oc3ccccc3)c2)cc1 | 1.14 | -0.99
O=S(=O)(NC1CCCCCCC1)c1ccccc1 | 2.1 | -1.21
Cc1ccc(C(=O)NNC2=NC(C)(C)Cc3ccccc32)cc1 | 1.9 | -0.13
c1ccc(N2CCN(Cc3cn4cccnc4n3)CC2)cc1 | 0.08 | -0.6
O=C(NCc1ccc2c(c1)OCO2)C1CCC(CNS(=O)(=O)c2ccc(Cl)cc2)CC1 (configuration not stated) | 0.85 | 1.66
Cc1ccc(S(=O)(=O)N2CCC(C(=O)NCCC3=CCCCC3)CC2)cc1C | 0.77 | 0.68
O=C(O)Cn1c(SCCOc2ccccc2F)nc2ccccc21 | 0.16 | -2.85
COc1ccccc1Nc1nc2ccc(C)cc2n2cnnc12 | 0.23 | -0.16
COc1ccccc1NC(=O)CSc1nncn1N | 0.09 | -1.5
COc1ccc(N=C2NC(=O)/C(=C\C=C\c3ccccc3)S2)cc1 | 0.01 | -1.57
CC(C)c1ccc(NC(=O)c2ccccc2NC(=O)C2CC=CCC2C(=O)O)cc1 (configuration not stated) | 0.8 | -0.04
O=c1c([N+](=O)[O-])cc(C(F)(F)F)cn1Cc1c(Cl)cccc1Cl | 1.2 | -0.1
Cc1cccc(NC(=O)C(C)SCc2nc3sc(C)c(C)c3c(=O)[nH]2)n1 (configuration not stated) | 0.63 | -0.76
Clc1ccccc1CSc1nc2ccncc2[nH]1 | 1.41 | -0.43
CCCCNC(=O)C1CCCN1C(=O)Nc1cccc(OC)c1 (configuration not stated) | 0.11 | 0.07
C/C(=N\Nc1ccc(S(N)(=O)=O)cc1[N+](=O)[O-])c1ccco1 | 1.61 | -1.51
CCOC(=O)c1cnn(-c2nc3c(C)cccc3s2)c1C | 0.78 | 1.05
CN(C)c1ccc2c(O)cc(=O)n(C)c2c1 | 0.67 | -0.69
CC1CC(C)CN(C(=O)COC(=O)c2cccc([N+](=O)[O-])c2)C1 (configuration not stated) | 0.72 | -0.08
COC(=O)c1c(NC(C)=O)sc2c1CCN(Cc1ccccc1)C2 | 0.05 | -0.95
COc1ccc(CCNC(=O)NC(C(F)(F)F)C(F)(F)F)cc1OC | 1.07 | -0.5
COC(=O)C1=C(C)Nc2nnnn2C1c1cc(OC)ccc1OC (configuration not stated) | 0.67 | -0.97
Cc1ccc(/C(=N/Nc2ncnc3ccccc23)C(=O)O)cc1 | 0.16 | 0.58
Cn1c(CNC(=O)c2ccc3c(c2)OCO3)nnc1SCC(=O)Nc1ccccc1F | 0.02 | -0.99
Cc1cccc(C)c1NC(=O)CCCSc1nnc(N)s1 | 0.63 | -0.39
CC(C)OP(=O)(OC(C)C)C(Nc1cccc(C(=O)O)c1)c1ccccc1 (configuration not stated) | 0.53 | 0.78
O=C(COC(=O)COc1ccc(Cl)cc1Cl)Nc1cccnc1Cl | 0.08 | 1.16
CN(C)c1nnc(-c2ccc(Cl)cc2)o1 | 0.84 | 0.85
Cc1sc(NC(=O)CSc2nc(N)n(CC(=O)c3ccccc3)n2)c(C#N)c1C | 1.06 | 1.52
CCOC(=O)c1c(S(=O)(=O)NCC(=O)NCc2ccccc2Cl)c(C)n(C)c1C | 0.59 | 0.36
CC1CCCN(CCCNC(=O)c2ccc(CS(=O)(=O)c3c(Cl)cccc3Cl)o2)C1 (configuration not stated) | 0.05 | 0.2
C=CCCC(=O)Nc1nc(C)c(-c2csc(Nc3ccc(Cl)cc3)n2)s1 | 1.27 | 0
CCCSc1cc(=O)n(-c2ccccc2)nc1C(=O)O | 1.58 | 0.41
CCn1c(COc2ccccc2C)nnc1SCC(=O)N1CCCCC1 | 0.92 | -0.34
Cc1cc(C(=O)NN=C2CCCC2)c2ccccc2n1 | 0.49 | -0.02
O=C(NCc1ccccn1)C(=O)Nc1cccc2ccccc12 | 1.01 | -0.02
Cc1ccc(S(=O)(=O)Nc2ccc(S(=O)(=O)N3CCOCC3)cc2)cc1 | 1.52 | -0.31
Cc1cc(C)n2nc(C(=O)Nc3ccc(N4CCOCC4)cc3)nc2n1 | 0.03 | -0.18
Cc1nc2ccc(NC(=O)C3CCN(S(=O)(=O)c4cccs4)CC3)cc2s1 | 1.45 | 1.41

# Quoted from the listing.
# Cc1sc(NC(=O)CSc2nc(N)n(CC(=O)c3ccccc3)n2)c(C#N)c1C – KCNQ2 pot = 1.06
# COC(=O)C1=C(C)Nc2nnnn2C1c1cc(OC)ccc1OC (configuration not stated) – KCNQ2 pot baseline = -0.97
# CCCSc1cc(=O)n(-c2ccccc2)nc1C(=O)O – KCNQ2 pot = 1.58
# Nc1c(C(=O)NCc2ccco2)nnn1CC(=O)Nc1ccccc1 – KCNQ2 pot = 1.61
# O=C(COC(=O)COc1ccc(Cl)cc1Cl)Nc1cccnc1Cl – KCNQ2 pot baseline = 1.16
# O=C(NC1CCN(C(=S)NCc2ccco2)CC1)c1ccc(F)cc1 – KCNQ2 pot = 0.25

# The listing continues.
Structure | KCNQ2 pot | KCNQ2 pot baseline
O=C(Nc1ccc(F)cc1)C1CCCN(S(=O)(=O)c2cccc3cccnc23)C1 (configuration not stated) | 0.15 | 0.13
Cc1ccccc1NC(=O)CCOc1ccccc1 | 0.84 | -1.63
CN1CCC(N(C)CC(C)(C)NS(=O)(=O)c2ccccc2)CC1 | 0.63 | -0.44
Cc1nn(-c2ccc(N3CCOCC3)nn2)c(C)c1CCC(=O)Nc1ccccc1 | 0.05 | -1.38
CCOC(=O)C1CCN(S(=O)(=O)c2ccc(-n3cnnn3)c(C)c2)CC1 | 1.3 | -0.01
CCOc1ccc(C(=O)NNC(=O)c2cc(C)oc2C)cc1 | 1.55 | 1.07
Cc1ccc(C(=O)NCCCNCCCN(C)C)cn1 | 0.18 | 0.1
Cn1c(Cc2csc(N)n2)nnc1SC/C=C/c1ccccc1 | 0.05 | -0.01
CN1CCN(C(=O)C2(NC(=O)Nc3cccc(F)c3)CCCCC2)CC1 | 0.31 | 0.51
Nc1cccc2c3c(oc12)CCCC3 | 0.41 | 0.71
CCOc1ccc(NS(=O)(=O)c2ccc3ncsc3c2)cc1 | 2.17 | -0.62
Cc1ccc(N=C2CSC(=O)N2)cc1 | 0.14 | -0.07
COC(=O)c1sc(NC(=S)NC(=O)c2ccccc2Cl)nc1C | 1.3 | 0.36
Cc1cc(C(=O)NP(=O)(N2CCOCC2)N2CCOCC2)c(C)n1-c1ccc(N(C)C)cc1 | 0.52 | 1.65
Cn1nnc(NC(=S)NC(=O)c2cccs2)n1 | 0.7 | 0.03
CCOC(=S)SCc1cn2cccc(C)c2n1 | 0.38 | 2.24
COc1ccc(CNC(=O)CN(Cc2ccccc2OC)C(=O)c2csnn2)cc1 | 1.09 | 0.27
COc1ccc(-n2nc(C(=O)NCC(=O)N3CCCCCC3)c3ccccc3c2=O)cc1 | 0.55 | -0.39
O=c1[nH]c(N2CCN(c3ccccc3)CC2)nc2c1CCCC2 | 2.16 | 0.86
CC(=O)N1CCN(c2ccc(NC(=S)NC(=O)c3ccc(C)c([N+](=O)[O-])c3)cc2)CC1 | 0.44 | 0.28

# As a working copy, part of the list above.
Structure | KCNQ2 pot | KCNQ2 pot baseline
Cc1ccc(N=C2CSC(=O)N2)cc1 | 0.14 | -0.07
COC(=O)c1sc(NC(=S)NC(=O)c2ccccc2Cl)nc1C | 1.3 | 0.36

# More structures follow:
Structure | KCNQ2 pot | KCNQ2 pot baseline
Cc1[nH]c(=O)[nH]c(=O)c1S(=O)(=O)Nc1ccc(Cl)c([N+](=O)[O-])c1 | 1.11 | 0.05
CCCc1nc(SCC(=O)c2ccc(F)cc2)c2ccccc2n1 | 3.76 | -0.3
Cn1c2ccccc2c2cc(C(=O)NNC(=O)CCl)sc21 | 0.5 | -0.96
O=S(=O)(Cc1cc(N2CCOCC2)nc(-c2ccccn2)n1)c1ccccc1 | 0.34 | -0.03
C=C(C)c1sc(-c2ccccc2)nc1C | 0.07 | 1.92
CCOc1ccccc1NC(=O)COc1cccc(-n2cnnn2)c1 | 1.34 | 0.76
CN(C)c1ccnc(Nc2ccc(F)cc2)c1C#N | 1.08 | -0.84
CCNc1nc(SC(C(C)=O)C(C)=O)nc(N(C)C)n1 | 0.36 | 0.07
COCCCn1c(=O)c2ccccc2c2ccccc2c1=O | 0.12 | -0.15
CC(=O)c1cccc(NC(=O)CSc2nnnn2C2CCCC2)c1 | 0.07 | 1.13
O=C(NCCc1ccccc1)C1CCN(S(=O)(=O)c2ccccc2)CC1 | 0.88 | 0.07
c1ccc(-c2nc(NCc3cccs3)c3ccccc3n2)cc1 | 0.29 | -0.43
Cc1cc(NS(=O)(=O)c2ccccc2)no1 | 0.89 | 1.65
Cc1ccc(NS(=O)(=O)c2ccc(C(=O)OCC(=O)Nc3cc(C)on3)cc2)cc1 | 0.2 | 1.28
COC(=O)C1=C(C)NC(=O)NC1c1ccc(OC(=O)c2ccco2)cc1 (configuration not stated) | 0.93 | 1.03
Cc1ccc(C(=O)O)cc1-c1ccc(/C=C2/NC(=O)N(c3ccccc3)C2=O)o1 | 1.22 | 0.6
CCOC(=O)C(=O)N1CCC(Cc2ccccc2)CC1 | 0.26 | 0.04
CC1Cc2ccccc2N1C(=O)C1CCCCN1S(=O)(=O)c1ccccc1 (configuration not stated) | 1.15 | -0.03
CC(C)CN(C(=O)COC(=O)c1ccc(Br)cc1)c1c(N)n(Cc2ccccc2)c(=O)[nH]c1=O | 1.23 | 1.45
c1ccc(-c2noc(-c3ccco3)n2)nc1 | 1.29 | 0.56
COc1ccccc1NC(=O)c1c(C)cc(=O)oc1C | 1.02 | -0.61
COC(=O)c1cc(=O)n(Cc2ccc(F)cc2)c(=NCc2ccc(F)cc2)s1 | 0.03 | 0.31
COc1ccc(-n2c(Cc3cccn3C)nnc2SCC(=O)NCCc2ccccc2)cc1 | 0.46 | -1.4
CCc1ccc2[nH]c(=O)c(CN(CCN(CC)CC)C(=O)Nc3ccccc3OC)cc2c1 | 0.03 | -0.15
CC(C)CCN1CCN(Cc2cc(F)ccc2-n2cccn2)CC1CCO (configuration not stated) | 1.18 | -0.65
Cc1ccc(C(=O)NNC(=O)c2ccc3ncccc3c2)cc1 | 0.55 | 1.74
COc1ccc(C(=O)NC(=S)N2CCN(c3ccccc3OC)CC2)cc1 | 1.57 | 0.92
O=C(CN(c1cccc(Cl)c1)S(=O)(=O)c1ccccc1)NN=C1CCCC1 | 0.11 | 1.04
CC(C)NC(=O)C(=O)N/N=C/c1ccco1 | 0.02 | 1.12
OCCNCCCCOc1ccc(OCc2ccccc2)cc1 | 0.19 | 0
CCOC(=O)Cn1ncc2c(=O)oc3ccccc3c21 | 0.53 | -1.33
COCCNC(=O)c1csc2c1CCCC2 | 2.09 | 0.41
CC(CCc1ccccc1)NC(=O)N1CCOCC1 (configuration not stated) | 0.38 | 0.99
Cc1noc(/C=C/N(C)C)c1S(=O)(=O)N1CCC(C(=O)Nc2ccc(Cl)cc2)CC1 | 0.56 | -0.1
C/C(=C\C(=O)O)C12CC3CC(CC(C3)C1)C2 | 0.02 | 0.61
COc1ccc(C2NCCC3(O)CCCCC23)c(OC)c1OC (configuration not stated) | 0.59 | 2.27
COc1ccc(CCNC(=O)c2ccc(CS(=O)Cc3ccc(Cl)cc3)o2)cc1OC (configuration not stated) | 0.64 | -0.55
Cc1occc1C(=O)N1N=C(C2CC2)CC1(O)C(F)(F)F (configuration not stated) | 1.38 | 0
Cc1cccc(NC(=O)c2ccc3[nH]c(=O)c(=O)[nH]c3c2)n1 | 0.01 | 0.01
CC(C)OCCCn1c(SCC(=O)Nc2ccccc2C(F)(F)F)nc2nccnc2c1=O | 0.39 | 1.69
O=S1(=O)C=C(SCCN2CCCCC2)c2ccccc21 | 0.03 | 2.21
CCOc1nc2c(c(=O)n(C)c(=O)n2C)n1Cc1ccccc1Cl | 1.02 | 0.7
Cc1ccc(OCc2ccc(C(=O)NN)o2)c([N+](=O)[O-])c1 | 1.19 | -1.32
COCCNC(=O)c1ccccc1NC(=O)Nc1ccccc1 | 0.1 | 0.41
Cc1nc2nc(SCC(N)=O)[nH]c2cc1Br | 0.47 | -0.03
O=C(c1ccc(CSc2nc3ccncc3[nH]2)cc1)N1CCCCC1 | 1.25 | 0.16
O=C(Nc1ccc(N2CCN(C(=O)c3ccccc3)CC2)c(Cl)c1)c1cccnc1 | 0.01 | 1.11
CC(C)CCNC(=S)Nc1ccc2nc3n(c(=O)c2c1)CCCCC3 | 1.38 | -1.79
OC(COc1ccc(OCc2ccccc2)cc1)CN1CCOCC1 (configuration not stated) | 0.56 | -0.45
O=C(OCc1nc2ccsc2c(=O)[nH]1)c1ccc(Cl)nc1 | 0.68 | -0.02
O=C(Nc1ccc2nc3n(c(=O)c2c1)CCCCC3)C(=O)N1CCN(c2ccc(F)cc2)CC1 | 0.29 | -0.07
CCn1c(SCc2nc3ccccc3c(=O)[nH]2)nc2ccccc2c1=O | 0.01 | -0.22
O=C(c1ccc(F)cc1)N1CCCCC(Sc2nnc3ccccn23)C1=O (configuration not stated) | 1.45 | 1.55

# High-throughput results as filed in PubChem BioAssay.
